Screening results (PubChem BioAssay)
RE007 growth inh – less growth of the S. pombe RE007 Vpr strain; 360,000 tested, 0.21% active; Potency, µM (top dose mostly 92.2 µM), without a hit: at the highest dose activity change, negative = less growth; AID 651644; S. pombe RE007 Vpr strain, BacTiter-Glo ATP luminescence, 24 h; control for the full effect not named in the record; active = well fitted falling curve with a large enough effect; inconclusive = small, poorly fitted or top-dose-only effect; inactive = no such curve, though single readings can be large or run the other way;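 note: % is set by controls: 0 for no effect and ±100 for the full control effect; nearly all actives have a fitted effect of over 50% in size; the assay follows cell death caused by Vpr and the record does not say whether a fall means rescue or toxicity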
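Fission yeast strain RE007, carrying one chromosomally integrated HIV-1 vpr copy, was seeded at OD 0.01 in PMG+AL medium with 23 nL pinned compound. After 24 h at 30 °C and 99% humidity, viability was read by BacTiter-Glo luminescence.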
SARS PLpro yeast – inhibitors of SARS-CoV papain-like protease in yeast. S. cerevisiae expressing SARS-CoV PLpro, growth rescue; control for the full effect not named in the record. Potency, µM (top dose mostly 32.9 µM), for the others: at the top dose activity, positive = growth rescue. 330,000 tested, 0.19% active. AID 485353; active means well fitted rising curve with a large enough effect; inconclusive means small, poorly fitted or top-dose-only effect; inactive means no such curve, though single readings can be large or run the other way; note: 0% is about no effect; nearly all actives have a fitted effect of over 55% in size; growth read by luminescence after 48 h
Lassa entry inh – Lassa virus entry inhibition; Potency, µM (titrated, usually from 37.9 µM), for inactives: top-dose activity change, negative = inhibition, hits mostly inhibitors; Lassa virus pseudotype entry inhibition, cell reporter; control for the full effect not named in the record; 300,000 tested, 1.2% active; active means well fitted inhibition curve with a large enough effect; inconclusive means small, poorly fitted or top-dose-only effect, or effect the other way; inactive means flat fitted curve, though single readings scatter; tested in HEK293 cells; note: % is set by controls: 0 for no effect and ±100 for the full control effect; nearly all actives have a fitted effect of over 50% in size; luciferase read-out
Cruzain noTriton – inhibitors of Trypanosoma cruzi cruzain without detergent; P25779; purified cruzain, Z-FR-AMC fluorescence, no detergent; Potency, µM, for inactives: max response, negative = inhibition, actives largely listed as inhibitors; 200,000 tested, 2.3% active;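 note: plate controls were enzyme without inhibitor for no effect and buffer without enzyme for full effect; nearly all actives have a fitted effect of over 40% in size; top concentration of the series not given in the record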
Target sequence (P25779 123-467 limits assumed): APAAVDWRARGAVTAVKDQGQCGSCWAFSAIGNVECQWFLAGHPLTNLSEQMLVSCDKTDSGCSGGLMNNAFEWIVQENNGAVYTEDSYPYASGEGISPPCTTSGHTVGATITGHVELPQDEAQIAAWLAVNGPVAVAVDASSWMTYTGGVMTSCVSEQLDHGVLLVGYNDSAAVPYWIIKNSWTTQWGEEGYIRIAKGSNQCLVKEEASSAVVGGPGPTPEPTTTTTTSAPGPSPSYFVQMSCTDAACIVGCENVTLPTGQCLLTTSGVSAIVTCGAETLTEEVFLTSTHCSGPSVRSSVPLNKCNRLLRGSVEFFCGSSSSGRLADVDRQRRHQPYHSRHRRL
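Purified cruzain at 1.5 nM, pre-incubated 15 min with compound at room temperature in 100 mM sodium acetate pH 5.5, 5 mM DTT, 0.00005% Triton X-100. Reaction started with 2 uM Z-FR-AMC; AMC fluorescence increase over 60 s gives rate.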
MARV entry inh – Marburg virus entry inhibition. Marburg virus pseudotyped entry inhibition, cell reporter; control for the full effect not named in the record; about a third of the inactives were read at about 46 µM. 300,000 tested, 1.8% active. Potency, µM (series often up to 37.8 µM), for the others: at the highest dose activity change, negative = inhibition, most hits filed as inhibitors; active = well fitted inhibition curve with a large enough effect; inconclusive = small, poorly fitted or top-dose-only effect, or effect the other way; inactive = flat fitted curve, though single readings scatter; tested in HEK293 cells; about a fifth of its hits are not listed in these tables; note: % is set by controls: 0 for no effect and ±100 for the full control effect; luciferase read-out
2A StopGo – FMDV 2A StopGo reporter, luciferase signal; 410,000 tested, 1.2% active; Potency, µM (doses to about 57.9 µM), for the others: top-dose signal change, negative = less light; human cells with a luciferase reporter of 2A StopGo recoding; control for the full effect not named in the record; AID 1159524; active = well fitted falling curve with a large enough effect; inconclusive = small, poorly fitted or top-dose-only effect; inactive = no such curve, though single readings can be large or run the other way; tested in HEK293T cells; note: % is set by controls: 0 for no effect and ±100 for the full control effect; nearly all actives have a fitted effect of over 45% in size; luciferase light after 4 h
Cruzain Triton – inhibitors of Trypanosoma cruzi cruzain with detergent | P25779 | purified cruzain, Z-FR-AMC fluorescence, 0.01% Triton | Potency, µM, for inactives: max response, negative = inhibition, most hits filed as inhibitors | 200,000 tested, 0.43% active | AID 1478;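 note: plate controls were neutral wells for no effect and buffer without enzyme for full effect; nearly all actives have a fitted effect of over 40% in size; top concentration of the series not given in the record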
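Z-FR-AMC hydrolysis (2 uM substrate) by cruzain (1.5 nM) monitored kinetically at ex 360/em 450 nm after 15 min room-temperature compound exposure; 0.01% Triton X-100, pH 5.5, 5 mM DTT.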
NS1 function inh – inhibitors of influenza NS1 protein function; S. cerevisiae slowed by influenza A NS1, growth recovery by OD600; Potency, µM (doses to about 46.1 µM), without a hit: at the top dose activity, positive = more growth; 270,000 tested, 0.4% active; active means well fitted rising curve with a large enough effect; inconclusive means small, poorly fitted or top-dose-only effect; inactive means no such curve, though single readings can be large or run the other way; note: nearly all actives have a fitted effect of over 50% in size
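Growth recovery, yeast-based: influenza A NS1 expressed in S. cerevisiae causes slow growth, and suppressors are detected by OD600. The parent strain without NS1 is used as positive control.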
Active calls of the source: *; ? = inconclusive; · = no result given; & = joins results of further samples; [ ] = remark or other dose. Unless noted, calls come from the whole dose curve; as a rule, active = well fitted curve in the direction sought with a large enough effect; inconclusive = small, poorly fitted or top-dose-only effect, or another doubt; inactive = no such curve, though single readings can be large; an effect the other way counts as inactive or inconclusive. Potency is the fitted concentration of half-maximal effect.

SMILES	RE007 growth inh	SARS PLpro yeast	Lassa entry inh	Cruzain noTriton	MARV entry inh	2A StopGo	Cruzain Triton	NS1 function inh
Cc1cc(OCC(=O)Nc2ccc(S(=O)(=O)N3CCN(C)CC3)cc2)ccc1Cl	-5%	-11%	-10%	-10%	?	-29%	-7.6%	-13%
O=C(CNC(=O)c1ccc(Br)o1)OCC(=O)c1cccc([N+](=O)[O-])c1	11%	-1%	-12%	·	2%[46.1 µM]	12%	·	2%
COc1cc(-c2nnc(SCC(=O)NC3CCCC3)n2C)cc(OC)c1O	-1%	3%	-11%[46.1 µM]	·	?	-4%	·	1%
CC(C)C1N=C2c3ccccc3N=C(SCC(=O)NCCc3ccc(S(N)(=O)=O)cc3)N2C1=O (centres undefined)	4%	6%	4%	-15%	2%&2%	-8%	-3.1%	-9%
CN1CCN(CC(O)Cn2c3ccccc3c3ccccc32)CC1 (centres undefined)	3%	0%	·	·	·	-8%	·	3%
O=C(c1cc2ccccn2n1)N1CCN(Cc2ccccc2)CC1	-8%	11%	·	-3%	·	19%	6.7%	-9%
CC(=O)Nc1nnc(SCC(=O)NC(C)(C)C)s1	14%	1%	-11%	-12%	20%	·	5.1%	5%
CC(=O)N1CCc2cc(S(=O)(=O)NC(Cc3ccccc3)C(=O)Nc3cccc(C)c3)ccc21 (centres undefined)	·	·	-11%[46.1 µM]	-22%	-13%[46.1 µM]	9%	-1.6%	·
COc1ccc(NC(=S)N(Cc2cccnc2)Cc2cc3cc(OC)c(OC)cc3[nH]c2=O)cc1	0%	0%	-3%	·	?	-16%	·	-2%
COC(=O)c1nc(N)sc1-c1ccc(Cl)cc1	0%	3%	?	·	?	10%	·	·
COc1ccccc1C(=O)NC(=O)COC(=O)C1CC1	11%	·	22%[46.1 µM]	·	-1%	76%[activator]	·	·
O=C(Nc1cccnc1)c1ccc(COc2cc(Cl)ccc2Cl)o1	-15%	-7%	?	10%	?	?	-9.6%	-60%
Cc1nnc(NS(=O)(=O)c2ccc(N=Nc3ccc(N)nc3N)cc2)s1	-14%	·	-11%	·	-6%	-3%	·	·
Cc1cc(Nc2ccc(C)c(Cl)c2)nc(N2CCOCC2)n1	-27%	-3%	?	·	?	-15%	·	-53%
CCn1c(=O)c2sccc2n2c(CCC(=O)Nc3cc(C)cc(C)c3)nnc12	·	·	12%[46.1 µM]	-1%	?	-11%	-2.9%	·
O=C(NC12CC3CC(CC(C3)C1)C2)c1ccccc1O	-11%	-7%	-2%	-2%	7%[46.1 µM]	?	-19%	-59%
O=C(C[n+]1ccc(C(=O)N/N=C/c2ccc(Br)cc2)cc1)c1ccccc1	1%	1%	?	-16%	?	0%	-14%	14%
CCOC(=O)C1=C(CS(=O)(=O)c2ccc(OC)c(Cl)c2)NC(=O)NC1c1cccc(OC)c1 (centres undefined)	·	·	-17%[46.1 µM]	0%	0%[46.1 µM]	-19%	-9.0%	·
Cc1ccccc1NC(=O)Cc1nc(-c2ccc3ccccc3c2)cs1	-12%	5%	-9%	-15%	11%	?	-0.7%	18%
Oc1ccc(/C=N/N(Cc2ccccc2)c2ccccc2)c(O)c1O	-14%	16%	?	·	12%[46.1 µM]	?	·	·
COc1ccc(N2CC(O)(c3ccc(C)cc3)[N+]3=C2CCCC3)cc1 (centres undefined)	-3%	-1%	2%	·	7%[46.1 µM]	10%	·	·
N#CC1=C(SCC(=O)Nc2ccc(C(=O)O)cc2)NC(=O)CC1c1ccco1 (centres undefined)	-2%	-2%	·	·	·	-12%	·	1%
Nc1nnc(SCC(=O)Nc2cc(S(=O)(=O)N3CCOCC3)ccc2Cl)s1	9%	-2%	-19%[46.1 µM]	·	-3%[46.1 µM]	30%	·	·
CCN(CC)C1CCN(C(=O)c2ccc3nc(Cc4ccc(OC)cc4)oc3c2)C1 (centres undefined)	-3%	1%	·	·	·	-1%	·	8%
N#CCCN(C(=O)COC(=O)C1=NNC(=O)CC1)c1ccccc1	12%	4%	8%	·	-11%[46.1 µM]	-16%	·	·
O=C(O)c1cc2nc(-c3cccs3)cc(C(F)(F)F)n2n1	-1%	0%	12%[46.1 µM]	·	-19%[46.1 µM]	4%	·	·
Cc1ccc(C(=O)CCC(=O)Nc2ccccc2F)cc1	-18%	-5%	·	·	·	57%[activator]	·	-13%
O=c1nc(N2CCCCC2)nc(Nc2ccccc2)[nH]1	-10%	4%	-1%	3%	-15%	·	-2.2%	6%
CC(C)C(NC(=O)C12CC3CC(CC(C3)C1)C2)C(=O)O (centres undefined)	-1%	0%	-10%	-4%	-1%	3%	5.9%	5%
CC(NC(=O)c1ccc(F)cc1)C(=O)NC1=NCCS1 (centres undefined)	5%	2%	12%	·	16%[46.1 µM]	-5%	·	·
CCc1nn(Cc2c(C)cc(C)cc2C)c(=O)c2cc3cc(C)ccc3n12	·	·	-11%[46.1 µM]	-3%	?	-4%	-0.5%	·
CCOc1ccc(NC(=O)CSc2nc3ccsc3c(=O)n2CC)cc1	·	·	-2%[46.1 µM]	2%	·	-18%	0.7%	·
CC[C@@H](Nc1ncnc2c1oc1ccccc12)C(=O)O	1%	1%	·	·	·	-11%	·	2%
O=C(NCCN1CCOCC1)c1ccc2ccccc2c1	3%	0%	1%	-4%	?	0%	2.3%	0%
Cc1[nH]nc2c1C(c1ccsc1)C1=C(CC(C)(C)CC1=O)N2 (centres undefined)	-12%	0%	-17%[46.1 µM]	·	?	19%	·	-1%
Cc1c(CCNC(=O)c2ccc(Br)o2)sc2nc(-c3ccc(Cl)cc3)nn12	·	·	?	23%	·	0%	-5.5%	·
COc1cccc(C(=O)Nc2ccccc2NC(=O)c2cccc(OC)c2)c1	8%	1%	-20%	·	-2%	-24%	·	-19%
O=S(=O)(c1ccc2ccccc2c1)N(CC(O)CN1CCOCC1)c1ccccc1 (centres undefined)	-18%	?	?	3%	19%&19%	-1%	4.9%	-3%
COc1ccccc1N(CC(=O)NCc1ccc2c(c1)OCO2)C(=O)CCC(=O)Nc1nccs1	26%	-5%	15%	·	?	0%	·	-13%
COc1ccc(NC(C)C(=O)N/N=C/c2ccccc2OCc2ccc(Br)cc2)cc1 (centres undefined)	4%	5%	?	?	2%	18%	-0.5%	11%
COc1cccc(/C=C2\SC(=S)N(CCC(=O)N3CCCCC3CCO)C2=O)c1 (centres undefined)	11%	-10%	·	·	·	-5%	·	-6%
Cc1cccc(N2CC(C(=O)Nc3ccccc3N3CCCC3)CC2=O)c1C (centres undefined)	15%	-1%	20%	·	-1%	-15%	·	·
COc1cc(/C=N/NC(=O)c2ccc(CN3c4cccc5cccc(c45)S3(=O)=O)cc2)cc(OC)c1O	-13%	-1%	-25%	·	?	?	·	14%
O=C(CN1C(=O)c2cccnc2C1=O)c1ccccc1	10%	0%	14%	-4%	27%	40%[activator]	-1.0%	0%
Cc1ccc(-c2[nH]nc3c2C(c2ccc(OC(=O)N4CCOCC4)cc2)C(C#N)=C(N)O3)cc1 (centres undefined)	15%	-10%	-11%	?	?	-10%	-11%	-148%
CC(C)Cc1cc(CN2CCC(CO)(Cc3cccc(C(F)(F)F)c3)CC2)[nH]n1	-6%	-1%	0%[46.1 µM]	·	?	-18%	·	4%
CCC(C)NC(=O)c1c(-c2cc(Cl)c(OC)c(Cl)c2)noc1C (centres undefined)	-4%	-8%	-10%	6%	-3%	-23%	-1.9%	-10%
O=C(Nc1ccc2c(c1)CCC2)C1COc2ccccc2O1 (centres undefined)	-19%	-29%	?	-15%	1%	79%[activator]	-9.3%	-9%
CCN(CC)Cc1c(C(=O)N/N=C/c2ccncc2)nnn1-c1nonc1N	-16%	7%	9%[46.1 µM]	·	1%[46.1 µM]	-10%	·	-5%
O=c1cnnc(Nc2ccc(F)cc2)[nH]1	-18%	3%	16%[46.1 µM]	·	1%[46.1 µM]	-5%	·	·
O=[N+]([O-])c1ccc(F)cc1Oc1nc(-c2cccnc2)nc2ccccc12	1%	0%	6%	·	-28%[46.1 µM]	-28%	·	·
O=C(c1ccc(S(=O)(=O)NCc2ccco2)cc1)N1CCN(c2ccccc2)CC1	2%	-5%	-15%[46.1 µM]	·	6%[46.1 µM]	1%	·	·
O=C(Nc1ccn(Cc2ccccc2)n1)c1ccc(F)cc1	8%	-1%	·	·	·	31%[activator]	·	-10%
CC1CN(C(=O)COC(=O)c2cc(=O)c3ccccc3o2)CC(C)O1 (centres undefined)	-8%	-1%	·	·	9%[46.1 µM]	14%	·	-3%
Cc1ccc(C(C)NC(=O)C2CCCC2)cc1C (centres undefined)	2%	-2%	·	·	·	-6%	·	0%
COc1ccccc1NC(=O)CSc1nnc(COc2ccccc2C)o1	-12%	-4%	-1%[46.1 µM]	·	1%[46.1 µM]	-10%	·	-3%
O=C(CCCN=C1NS(=O)(=O)c2ccccc21)OCc1ccccc1	-2%	4%	-14%[46.1 µM]	·	0%	4%	·	·
CCc1cccc(NC(=O)c2ccc3c(c2)c(C)c(C)n3Cc2ccc(F)cc2)c1	·	·	-12%[46.1 µM]	16µM*	·	-6%	2.1%	·
COc1cccc(NC(=O)c2cc(-c3cccnc3)nc3c(Cl)cccc23)c1	13%	-4%	0%	?	?	-22%	0.4%	3%
CC(C)C(NS(=O)(=O)c1ccccc1F)C(=O)OCC(=O)NCc1ccco1 (centres undefined)	-2%	1%	0%	·	-3%	-14%	·	·
COc1ccccc1NC(=O)Cn1nnc2sc3c(c2c1=O)CC(C)(C)OC3	13%	0%	·	·	·	-18%	·	2%
Cc1cc(C(=O)CN2C(=O)C(=O)N(C)C2=O)c(C)n1-c1cccc(S(=O)(=O)N2CCOCC2)c1	2%	0%	8%	·	5%[46.1 µM]	-28%	·	2%
Cc1ccc2nc(SCC(=O)Nc3cccc(S(N)(=O)=O)c3)[nH]c2c1	-9%	1%	·	·	·	3%	·	4%
